Screening data: PubChem, National Center for Advancing Translational Sciences (NCATS)
LDHA inh: LDHA (human) enzyme inhibition; activity change, % (values are at about 110 or 230 µM); P00338; purified LDHA, NADH/diaphorase-resazurin fluorescence; hits give low values; 480,000 compounds, 0.15% hits; AID 1347041; in the data active = activity change below about -30%; inconclusive = mostly about -25% to -30%;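 also: plate controls were DMSO wells for no effect and wells without enzyme for full effect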
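Human LDH5 (2 nM) was incubated with 0.06 mM NADH and 0.2 mM pyruvate for 5 min at room temperature in Tris pH 7.4. Remaining NADH was coupled through diaphorase/resazurin, and resorufin fluorescence was read at 0 and 20 min.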
Vif-APOBEC3F blk: Vif-A3F binding inhibition; Potency, µM (series often up to 46.1 µM), for inactives: at the highest dose activity, negative = active; HeLa A3F-eYFP + Vif (tagged APOBEC3F with the HIV-1 protein that degrades it), YFP fluorescence increase; 390,000 compounds, 0.2% hits; AID 602313; also: potency is read from the fitted curve at half-maximal effect; % of control where 0% means no effect; nearly all actives have a fitted effect of over 65% in size
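HeLa cells stably expressing A3F-eYFP plus Vif, plated and incubated overnight at 37 deg C, then exposed to compounds overnight at 37 deg C. Blocked degradation read as raised yellow fluorescence (Ex 488/Em 500-530).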
Glioma ERSR ind: ER stress response induction in glioma; Potency, µM, for the others: at the top dose activation, actives largely listed as activators; 420,000 compounds, 0.02% hits; AID 602332; U87-MG GRP78 promoter luciferase reporter, 16 h; also: potency is read from the fitted curve at half-maximal effect; series mostly up to about 76 µM; % of control where 0% means no effect; nearly all actives have a fitted effect of over 35% in size
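ERSR induction read as luciferase luminescence (Bright-Glo, 10 min at room temperature) in stably transfected human U87-MG glioma cells exposed to compounds for 16 h, using GRP78 as sensor.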
RGS4 inh: inhibitors of human regulator of G protein signaling 4. P49798. Transcreener GDP fluorescence polarization, RGS4-accelerated GTP hydrolysis. Potency, µM (doses to about 114 µM), for inactives: at the highest dose activity change, negative = inhibition, hits mostly inhibitors. 390,000 compounds, 0.039% hits; also: potency is read from the fitted curve at half-maximal effect; % is scaled to controls: 0 for no effect and ±100 for the full control effect; nearly all actives have a fitted effect of over 75% in size; some results filed as inactive show a strong effect at the top dose
Target sequence (P49798 whole entry, looked up): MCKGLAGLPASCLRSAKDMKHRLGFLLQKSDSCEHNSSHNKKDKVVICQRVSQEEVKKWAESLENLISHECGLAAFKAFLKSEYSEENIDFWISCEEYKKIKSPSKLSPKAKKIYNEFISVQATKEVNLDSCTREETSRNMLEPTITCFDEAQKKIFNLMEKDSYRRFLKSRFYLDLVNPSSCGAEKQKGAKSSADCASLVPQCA
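MLSMR compounds (23 nl, pin-transferred) preincubated 10 min at room temperature with a 500nM (2x) first reagent, then RGS4 at 900nM (2x) plus Transcreener GDP mix added; fluorescence polarization (620/688 nm) read before and after 90 min at 30 °C.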
Vif-A3G inh: Vif-A3G binding inhibition; AID 602310; Q9HC16; 410,000 compounds, 0.076% hits; HeLa A3G-eYFP + Vif (tagged APOBEC3G with the HIV-1 protein that degrades it), YFP fluorescence, overnight; Potency, µM (highest dose often 46.1 µM), without a hit: at the top dose activity, negative = active, hits mostly inhibitors;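 also: potency is read from the fitted curve at half-maximal effect; % is scaled to controls: 0 for no effect and ±100 for the full control effect; nearly all actives have a fitted effect of over 60% in size; hits raise eYFP signal because A3G escapes Vif-driven loss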
Target sequence (Q9HC16 whole entry, looked up): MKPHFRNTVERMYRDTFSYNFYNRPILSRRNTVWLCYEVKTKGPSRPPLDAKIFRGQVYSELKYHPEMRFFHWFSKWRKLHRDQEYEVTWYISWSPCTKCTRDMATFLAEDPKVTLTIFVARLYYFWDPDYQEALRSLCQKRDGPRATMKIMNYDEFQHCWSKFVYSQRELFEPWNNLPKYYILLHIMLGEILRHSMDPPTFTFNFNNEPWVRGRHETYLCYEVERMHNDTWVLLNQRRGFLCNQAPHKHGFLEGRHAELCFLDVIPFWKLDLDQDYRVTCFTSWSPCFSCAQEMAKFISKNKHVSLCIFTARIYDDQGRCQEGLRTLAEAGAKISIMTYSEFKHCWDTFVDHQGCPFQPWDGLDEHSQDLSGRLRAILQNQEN
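HeLa cells stably expressing Vif and C-terminally eYFP-tagged A3G, seeded overnight at 37 deg C, then exposed to compound by pintool overnight at 37 deg C. Rise in yellow fluorescence (Ex 488/Em 500-530, Acumen) marks blocked Vif-driven A3G degradation.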
Active calls of the source: *; ? = inconclusive; nt = not tested or not shown; & = joins results of further samples; [ ] = another dose, or the depositor's remark. Unless noted, calls follow the shape of the dose curve; as a rule, active = well fitted curve in the direction sought with a large enough effect; inconclusive = small, poorly fitted or top-dose-only effect, or another doubt; inactive = no such curve, though single readings can be large; an effect the other way counts as inactive or inconclusive. Only part of the results is shown (hit frequency here may not be typical).

SMILES	LDHA inh	Vif-APOBEC3F blk	Glioma ERSR ind	RGS4 inh	Vif-A3G inh
NCCN1C(=O)c2ccccc2C1(O)c1ccc(Cl)cc1 (centres undefined)	-6.9	-9.0%	-6.9%	nt	-1.0%
O=C(O)CCC(=O)C(=O)O	5.6	nt	1.5%	nt	nt
CCN1CCN(CCCNC(=O)c2ccc3c(c2)sc2nc(-c4ccc(OC)cc4)cn23)CC1	-2.7	?	-0.2%	8.0%	1.6%
Cc1ccc(C(=O)O[C@H](C(=O)O)[C@@H](OC(=O)c2ccc(C)cc2)C(=O)O)cc1 (tested in a mixture with another compound)	nt	nt	-3.0%	-21.2%[56.9 µM]	nt
CCN(CC)CC#CCOC(=O)C(O)(c1ccccc1)C1CCCCC1 (centres undefined)	-1.3	0.4%	-0.1%&-3.1%	-13.2%[56.9 µM]	-2.4%
COC(=O)Cc1c[nH]c2cccc(OCC(O)CN(Cc3ccccc3)C(C)C)c12 (centres undefined)	5.8	1.9%	-8.5%	-15.7%[56.9 µM]	1.2%
CC(=O)OCC(=O)[C@@]12OC(C)(C)O[C@@H]1C[C@H]1[C@H]3C[C@H](F)C4=CC(=O)C=C[C@@]4(C)[C@]3(F)[C@H](O)C[C@@]12C	nt	nt	-4.7%	nt	nt
C1N2CN3CN1CN(C2)C3	-10.7	-0.3%	-2.6%&-5.8%&-0.4%	27.1%	-3.2%
NNC(=O)c1nc(-c2ccccc2)cc(-c2ccccc2)n1	-1.4	-0.1%	0.2%	-21.4%	-18.6%
Cc1ccc(C(=O)OC(C(=O)O)C(OC(=O)c2ccc(C)cc2)C(=O)O)cc1 (centres undefined)	-3.2	-2.5%	-2.4%	-13.4%	-0.2%
CNCC[C@@H](Oc1ccccc1C)c1ccccc1	0.7	-0.4%	-3.5%&-2.5%	-6.8%	1.5%
NCCS	-10.3	-6.3%	-6.4%&-0.4%&-4.3%&-3.1%&-1.3%	?	-0.1%
O=C(O)[C@H](O)[C@@H](O)C(=O)O	-6.7	-0.3%	-2.1%	6.3%	-0.3%
CC(C)NC[C@@H](O)c1ccc(O)c(O)c1	4.3	-2.9%	-3.3%&-3.5%	?	1.2%
OCc1cccnc1	nt	nt	-5.4%&-7.9%&-3.1%	nt	nt
O=C(O)C1=C/C(=C/C=[N+]2c3cc(O)c(O[C@H]4OC(CO)[C@@H](O)[C@@H](O)[C@@H]4O)cc3C[C@@H]2C(=O)[O-])C[C@H](C(=O)O)N1 (some centres undefined)	-20.5	nt	-1.9%	nt	1.5%

An excerpt from above in order of formula weight, smallest number first.
SMILES	LDHA inh	Vif-APOBEC3F blk	Glioma ERSR ind	RGS4 inh	Vif-A3G inh
NCCS	-10.3	-6.3%	-6.4%&-0.4%&-4.3%&-3.1%&-1.3%	?	-0.1%
CNCC[C@@H](Oc1ccccc1C)c1ccccc1	0.7	-0.4%	-3.5%&-2.5%	-6.8%	1.5%
Cc1ccc(C(=O)OC(C(=O)O)C(OC(=O)c2ccc(C)cc2)C(=O)O)cc1 (centres undefined)	-3.2	-2.5%	-2.4%	-13.4%	-0.2%

An excerpt from above, reduced to LDHA inh and Vif-A3G inh:
canonical_smiles | LDHA inh | Vif-A3G inh
O=C(O)C1=C/C(=C/C=[N+]2c3cc(O)c(O[C@H]4OC(CO)[C@@H](O)[C@@H](O)[C@@H]4O)cc3C[C@@H]2C(=O)[O-])C[C@H](C(=O)O)N1 (some centres undefined) | -20.5 | 1.5%
CCN1CCN(CCCNC(=O)c2ccc3c(c2)sc2nc(-c4ccc(OC)cc4)cn23)CC1 | -2.7 | 1.6%
NCCN1C(=O)c2ccccc2C1(O)c1ccc(Cl)cc1 (centres undefined) | -6.9 | -1.0%
COC(=O)Cc1c[nH]c2cccc(OCC(O)CN(Cc3ccccc3)C(C)C)c12 (centres undefined) | 5.8 | 1.2%
Cc1ccc(C(=O)OC(C(=O)O)C(OC(=O)c2ccc(C)cc2)C(=O)O)cc1 (centres undefined) | -3.2 | -0.2%

As entered above:
Glioma ERSR ind, `CC(=O)OCC(=O)[C@@]12OC(C)(C)O[C@@H]1C[C@H]1[C@H]3C[C@H](F)C4=CC(=O)C=C[C@@]4(C)[C@]3(F)[C@H](O)C[C@@]12C` → -4.7%
Vif-APOBEC3F blk, `NCCS` → -6.3%
Vif-APOBEC3F blk, `Cc1ccc(C(=O)OC(C(=O)O)C(OC(=O)c2ccc(C)cc2)C(=O)O)cc1` (centres undefined) → -2.5%

Reformatted: entries from further up
| SMILES | LDHA inh | Vif-APOBEC3F blk | Glioma ERSR ind | RGS4 inh | Vif-A3G inh |
| --- | --- | --- | --- | --- | --- |
| NCCN1C(=O)c2ccccc2C1(O)c1ccc(Cl)cc1 (centres undefined) | -6.9 | -9.0% | -6.9% | nt | -1.0% |
| O=C(O)CCC(=O)C(=O)O | 5.6 | nt | 1.5% | nt | nt |
